CSC inhib: blocks cancer stem cells; cancer stem cell-like cells viability, luminescence; 300,000 tested, 1.1% active; inhibition, % at 7.5 µM;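 active means mean at 75% or more and at least half the replicates too; inconclusive means mean and replicates disagree; tested in HMLE shEcad cells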;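 further: 0% = median of negative and 100% = median of positive control wells; the first replicate is given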
eIF4H FP inh: inhibitors of RNA binding by human eIF4H; eIF4H fluorescence polarization binding assay; inhibition, % at 35 µM; 290,000 tested, 0.94% active;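 active means 50% or more with normal probe brightness, or confirmed in later tests; inconclusive means above 50% with abnormal brightness, or retests that disagree; inactive means below 50% or failed in later tests; about a fifth of its hits are not listed in these tables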;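 further: calls also rest on retests at 20 µM and on dose response follow-up; 0% = protein and probe with vehicle and 100% = probe without protein; strong numbers were not always called active; many hits fall short of the cut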
PABP polyA inh: PABP-poly(A) binding inhibition | PABP-poly(A) RNA binding, fluorescence polarization | inhibition, % at 35 µM | 290,000 tested, 1% active | AID 2014;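 active means 50% or more with normal probe brightness, or confirmed in later tests; inconclusive means above 50% with abnormal brightness, or retests that disagree; inactive means below 50% or failed in later tests; about a fifth of its hits are not listed in these tables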;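 further: calls also rest on retests at 20 µM and on dose response follow-up; controls were probe without protein and protein plus probe with vehicle; some compounds called inactive have numbers as strong as hits; many hits fall short of the cut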
Target sequence (P11940 whole entry, looked up): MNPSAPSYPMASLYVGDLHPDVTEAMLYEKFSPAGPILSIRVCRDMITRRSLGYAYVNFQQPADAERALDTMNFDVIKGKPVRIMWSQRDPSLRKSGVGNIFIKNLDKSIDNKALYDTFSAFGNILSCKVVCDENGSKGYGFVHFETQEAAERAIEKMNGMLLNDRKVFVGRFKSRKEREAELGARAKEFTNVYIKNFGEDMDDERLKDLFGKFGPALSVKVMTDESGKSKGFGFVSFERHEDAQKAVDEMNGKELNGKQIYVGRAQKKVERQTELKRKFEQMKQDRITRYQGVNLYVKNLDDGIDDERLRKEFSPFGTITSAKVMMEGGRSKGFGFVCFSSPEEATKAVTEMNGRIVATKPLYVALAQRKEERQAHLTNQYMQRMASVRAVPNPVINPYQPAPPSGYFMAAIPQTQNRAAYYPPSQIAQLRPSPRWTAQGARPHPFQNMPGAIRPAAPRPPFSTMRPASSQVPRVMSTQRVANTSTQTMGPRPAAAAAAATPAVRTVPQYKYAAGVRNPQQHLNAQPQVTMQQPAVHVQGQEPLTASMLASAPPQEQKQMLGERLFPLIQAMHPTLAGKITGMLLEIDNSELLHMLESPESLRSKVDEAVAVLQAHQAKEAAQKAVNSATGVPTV
HIV Env fusion: blocks HIV Env-driven cell-cell fusion; HeLa-JRFL Env/CEM21 cell fusion, luciferase; inhibition, % at 12.3 µM; 360,000 tested, 1.1% active;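 active means mean replicate inhibition score of at least 50 and every replicate individually at or above 50; inconclusive means only one of the two criteria met; inactive means mean below 50 and not all replicates reaching 50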;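 further: 0% = plate neutral controls and 100% = maraviroc near 300 nM; one replicate is shown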
Rce1 inh: inhibitors of yeast Ras-converting enzyme; yeast membranes, quenched prenylated peptide cleavage fluorescence; 290,000 tested, 0.27% active; calls only; Q03530;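 active means fall in fluorescence gain of 50% or more versus controls, with final raw signal at or below 3038400; inconclusive means same 50% fall but final raw signal above 3038400; inactive means fall in fluorescence gain under 50%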;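 further: plate controls were neutral control wells for no effect and wells lacking membranes for full effect; tested at 10 µM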
Target sequence (Q03530 whole entry, looked up): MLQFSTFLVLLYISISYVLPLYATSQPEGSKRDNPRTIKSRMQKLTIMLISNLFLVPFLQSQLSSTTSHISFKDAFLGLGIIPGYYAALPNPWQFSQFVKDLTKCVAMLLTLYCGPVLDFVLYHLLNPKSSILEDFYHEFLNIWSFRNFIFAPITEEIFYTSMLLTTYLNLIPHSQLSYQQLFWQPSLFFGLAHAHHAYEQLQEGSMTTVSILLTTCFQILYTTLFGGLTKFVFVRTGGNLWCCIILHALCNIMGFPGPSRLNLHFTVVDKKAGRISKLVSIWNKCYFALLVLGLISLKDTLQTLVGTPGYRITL
UUG fidelity: modulators of start codon recognition fidelity in yeast; S. cerevisiae UUG-firefly luciferase reporter, luminescence/redox ratio; 350,000 tested, 0.13% active; activity score, % at 18.7 µM;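 active means replicate mean at a twofold rise or more, about +100% in these data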;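 further: firefly luciferase made from a UUG start codon reports start codon fidelity; reporter light over untreated wells divided by growth signal over untreated wells; some hits fall short of that in this replicate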
MT1-MMP act inh: inhibitors of human MT1-MMP activation; HT1080 RFP-PRO-GFP cells, GFP/RFP ratio fluorescence, overnight; percent of plate control window, DMSO zero; P50281; GFP/RFP ratio change, % at 20 µM; AID 651647; 360,000 tested, 0.061% active;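 active means GFP/RFP ratio change of at least 30% with cell ATP level not reduced by more than half and red fluorescence within 50% of control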; further: strong numbers were not always called active
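Material: RFP-PRO-GFP reporter HT1080 cells. Dosing: single-point 20 µM compound, 1% DMSO. Controls: DMSO and RFP-L50D-GFP cell wells. Timing: cells overnight before dosing, compound overnight, 37 °C, 5% CO2. Measure: GFP/RFP fluorescence ratio.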
eIF4H FP inh retest: recorded beside eIF4H FP inh, whose call it bears; inhibition, %; compound at 20 µM; confirmation average;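 mean of two retest wells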
PABP polyA inh retest: further read-out of PABP polyA inh, marked with its call; inhibition, %; compound at 20 µM; confirmation repeats;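 mean of two retest wells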
MT1-MMP act inh RFP: recorded beside MT1-MMP act inh, whose call it bears; RFP signal change, %; measured here: RFP expression control read;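 0 = vehicle wells; hits needed this value within 50% of zero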
The depositor's hits bear a star; i = inactive; ? = inconclusive; . = not tested or not shown. The list is partial; the hit share may differ from the screen's.

SMILES	CSC inhib	eIF4H FP inh	PABP polyA inh	HIV Env fusion	Rce1 inh	UUG fidelity	MT1-MMP act inh	MT1-MMP act inh RFP	others
O=C(NCCC1=CCCCC1)C1CCN(S(=O)(=O)c2cccc3cccnc23)CC1	-6	5	-6	29	i	-5	1	0
COc1cc(S(=O)(=O)N2CCN(C)CC2)ccc1Cl	-3	-17	-11	.	i	7	3	-1
O=C(NCc1ccccc1)c1cccc(S(=O)(=O)NCc2ccccc2)c1	-13	-9	2	.	i	.	-2	-1
Cc1cccc(-c2ncc(CN3CCN(CC(C)C)C(CCO)C3)cn2)c1 (stereo not given)	29	-4	3	-3	i	1	5	2
CC(Oc1ccccc1)C(=O)Nc1ccc(S(=O)(=O)NCC2CCCO2)cc1 (stereo not given)	-11	-2	3	.	i	.	4	-5
S=C(NCc1ccco1)N1CCOCC1	23	-3	-21	-2	i	.	-2	0
CCOc1ccccc1C=C1SC(=S)NC1=O	.	.	.	78*	.	-8	-1	-3
CN(C)S(=O)(=O)c1ccc(N2CCCC2)c(C(=O)NNC(=O)COc2ccc(Cl)cc2)c1	-2	-11	-2	.	i	6	-2	-3
Cc1ccc(NC(=O)COC(=O)Cn2c(C)csc2=O)cc1C	-10	0	4	-29	i	-35	4	7
CCN(CC)C(=O)CSc1nc2cc3c(cc2c(=O)n1CCCCCC(=O)NCc1ccc(OC)cc1)OCO3	1	-10	-7	20	i	.	-5	-7
O=C(O)c1csc(Br)c1Br	.	-5	8	.	i	-8	6	9
C=CCn1c(O)c(N=NC(=S)Nc2ccccc2F)c2ccccc21	2	5	-4	46	i	.	5	-3
COc1ccccc1NC(=O)c1cc(C)oc1C	12	-1	0	-4	i	-19	-2	2
C/C(=N\NS(=O)(=O)c1ccc(Br)cc1)c1cccs1	-7	2	-4	-17	i	-6	-1	4
O=C(Nc1cc(C(F)(F)F)ccc1Cl)C(Sc1cccc[n+]1[O-])c1ccccc1 (stereo not given)	-4	1	8	?	i	.	-1	-5
CCC1Nc2ncnc(N3CCN(c4ccccc4)CC3)c2N(Cc2ccc(Br)cc2)C1=O (stereo not given)	14	.	.	7	i	-10	-6	-4
CCCN(CC(=O)Nc1ccccc1OC)C(=O)CCCN1C(=O)c2ccccc2C1=O	-9	.	.	-112	i	-4	2	-5
CCOC(=O)C1=C(C)Nc2[nH]c(=O)[nH]c(=O)c2C1c1cccs1 (stereo not given)	5	4	0	7	i	12	-1	2
O=C(NCCc1ccccc1)C(c1ccc(F)cc1)N(C(=O)c1csnn1)C1CC1 (stereo not given)	-12	3	-3	6	.	-9	-2	-1
O=C(COC(=O)/C=C/c1ccco1)NCc1ccc(Cl)cc1Cl	-8	.	.	.	.	-7	2	-1
Cc1ccc(-c2noc(CNc3ccccc3)n2)cc1	-1	1	4	-69	i	0	0	6
CC(=O)NC(CC(=O)Nc1ccc(S(=O)(=O)N2CCOCC2)cc1)c1ccccc1 (stereo not given)	-5	.	.	-5	.	-1	1	0
O=C(Nc1nnc(-c2ccc(F)cc2)o1)C1CCCN1S(=O)(=O)c1cccs1 (stereo not given)	-2	.	.	-11	i	-10	7	0
COCn1c(-c2ccc(OC)c(OC)c2)nc2ccccc21	1	-2	7	-137	i	-18	3	9
CC(C)(C)NC(=O)C(c1ccc(O)cc1)N(C(=O)CCC(=O)Nc1nccs1)c1cccc(F)c1 (stereo not given)	-6	-3	9	1	i	.	-5	-2
CC(Oc1ccccc1)C(=O)OCC(=O)NC(=O)NC1CCCCC1 (stereo not given)	-10	.	.	.	.	9	0	4
Cc1ccc(NC(=O)NCc2ccc3c(c2)OCO3)cc1	4	-12	-4	-43	i	-8	7	4
COc1cc(C2C(C#N)=C(N)Oc3c2oc(CO)cc3=O)ccc1OC(C)C (stereo not given)	-18	-2	11	15	i	-3	-2	5
CCO/N=C(/C)c1c(O)c(C)c(-c2ccccc2)n(-c2ccccc2)c1=O	.	-2	5	-17	i	-9	-1	-10
COc1ccc(N/C=C/c2nc(SC)nnc2C)cc1	-12	38	-4	7	i	-6	-31	-2
Cc1nn(-c2ccccc2)c(Cl)c1C1C(C#N)=C(N)OC2=C1C(=O)CC(C)(C)C2 (stereo not given)	35	1	10	.	i	-9	1	-4
Cn1c(=O)n(C)c2cc(NC(=O)Cc3ccccc3[N+](=O)[O-])ccc21	-11	-5	-1	-152	i	-8	6	-2
COc1cc2[nH]c(C(=O)NN)c(N)c2cc1OC	-8	23	-2	.	i	.	.	.
O=C(N/C(=C\c1ccc([N+](=O)[O-])cc1)C(=O)N1CCOCC1)c1ccco1	-16	-1	9	-5	i	-18	-1	2
O=C(OCCN1C(=O)c2cccc3c(N4CCOCC4)ccc(c23)C1=O)c1ccccc1Cl	12	?	-7	20	i	.	-212	-25
CCCCOc1ccc(/C=C/C(=O)Nc2ccc([N+](=O)[O-])cc2C)cc1	-10	16	4	21	i	.	0	-3
O=C(COC(=O)CNS(=O)(=O)c1ccc(Br)cc1Cl)NC1CCCC1	1	.	.	7	i	-7	7	3
CCOC(=O)N1CCN(CC(=O)Nc2sccc2C#N)CC1	-9	5	-9	-9	i	-3	1	1
CCOc1ccc(CN2CCN(C3CCC3)CC2CCO)cc1 (stereo not given)	-8	2	-6	-23	i	-2	-1	0
Cc1ccc(-n2c(SCC(=O)N3CCOCC3)nnc2-c2cccnc2)cc1	-1	-8	3	.	i	.	1	2
N#CC1=C(N)SC(N)=C(C#N)C1c1cccc(O)c1	13	74*	73*	.	i	-8	-170	6	eIF4H FP inh retest=64*;PABP polyA inh retest=89*
Cc1oc(-c2ccccc2)cc1C(=O)NC(Cc1c[nH]c2ccccc12)C(=O)O (stereo not given)	2	2	-16	28	i	.	0	10
CNCc1nc2ccccc2[nH]1	-8	7	1	-3	i	.	-1	-3
N/C(CN1CCCC1=O)=N\OC(=O)c1ccccc1Cl	-21	-5	7	-84	i	-9	10	2
O=C1C(Cl)=C(N2CCCC2)C(=O)N1c1ccc(F)cc1	-6	0	2	9	.	5	1	5

No new results follow: 4 of the compounds above.
SMILES	CSC inhib	eIF4H FP inh	PABP polyA inh	HIV Env fusion	Rce1 inh	UUG fidelity	MT1-MMP act inh	MT1-MMP act inh RFP	others
Cc1oc(-c2ccccc2)cc1C(=O)NC(Cc1c[nH]c2ccccc12)C(=O)O (stereo not given)	2	2	-16	28	i	.	0	10
CNCc1nc2ccccc2[nH]1	-8	7	1	-3	i	.	-1	-3
N/C(CN1CCCC1=O)=N\OC(=O)c1ccccc1Cl	-21	-5	7	-84	i	-9	10	2
O=C1C(Cl)=C(N2CCCC2)C(=O)N1c1ccc(F)cc1	-6	0	2	9	.	5	1	5

(listing goes on)
SMILES	CSC inhib	eIF4H FP inh	PABP polyA inh	HIV Env fusion	Rce1 inh	UUG fidelity	MT1-MMP act inh	MT1-MMP act inh RFP	others
CC(C)C[C@H]1CN=C(N(C)C)N1CC1CCCCCC1	3	.	.	-7	.	-12	1	0
O=C(C1CCCN(C2CC(=O)N(c3ccc(Cl)cc3)C2=O)C1)N1CCCC1 (stereo not given)	-10	-5	-14	1	i	-15	1	5
O=C1c2ccccc2NC(c2cccc(O)c2)N1NS(=O)(=O)c1ccccc1 (stereo not given)	-7	-11	-12	8	i	-11	-5	-3
CCc1ccccc1NC(=O)N1CCC(NC(=O)C(Cc2ccc(OC)c(OC)c2)NC(C)=O)CC1 (stereo not given)	-1	12	-3	-1	i	-4	1	6
CCN(CC)C(=O)CSc1nnc(-c2ccc(O)cc2)n1CC1CCCO1 (stereo not given)	-14	-13	1	-33	i	-16	0	-1
O=C(CCCc1nc2ccccc2s1)Nc1ccccc1	-7	6	0	-16	i	-21	5	5
Cc1ccc(S(=O)CCNC(=O)Cc2ccc(Cl)cc2)cc1 (stereo not given)	-9	-5	-12	3	i	.	-3	-2
N#Cc1sc2nc3c(cc2c1N)CCCC3	2	-1	-12	8	i	-11	7	7
CCC(C)C(=O)Nc1nnc(-c2cccs2)s1 (stereo not given)	0	-3	-8	-54	.	6	0	-11
CN1/C(=C\C(=O)C[n+]2ccc(C(=O)c3ccccc3)cc2)C(C)(C)c2ccccc21	4	-2	?	16	i	.	-10	-19
CCOc1ccc(C(=O)Nc2ccc(NC(=O)c3ccccc3)cc2)cc1Br	-4	-5	4	?	i	-16	-3	0
CCOc1ccc(N(CC(=O)NCCc2ccc(OC)cc2)S(C)(=O)=O)cc1	-2	1	-10	-1	i	.	1	1
COc1ccccc1C(=O)NNC(=O)c1cccc(F)c1	-2	1	2	-5	i	-59	-1	4
O=S(=O)(CCN1CCOCC1)c1ccc(Oc2ccc(S(=O)(=O)CCN3CCOCC3)cc2)cc1	-2	-1	4	6	i	-2	-6	-23
CSc1cccc(CN2CCC(Oc3cccc(C(=O)N4CCCC4)c3)CC2)c1	6	8	-3	-5	i	-13	3	0
CCc1ccc(NC(=O)CCn2cccc2)cc1	-10	4	-4	-80	i	-21	-1	-1
O=C(c1cc([N+](=O)[O-])ccc1Cl)N1CCc2ccccc21	-9	0	7	9	i	6	-2	-2
CC(=O)Nc1ccc(NC(=O)COc2cccc3c2OC(C)(C)C3)cc1	-3	-1	7	-9	i	-9	2	-2
COc1ccc(/C=C2\SC(=O)N(CC(=O)N(C)C3CCS(=O)(=O)C3)C2=O)cc1 (stereo not given)	-9	-21	0	6	i	-9	-1	1
CC(OC(=O)c1cccc(-n2cnnn2)c1)C(=O)Nc1ccccc1F (stereo not given)	7	.	.	-38	i	-1	7	1
CCC(OC(=O)C1=Cc2ccccc2OC1)C(=O)NCc1ccco1 (stereo not given)	1	-13	-2	8	i	.	2	-4
O[C@@H]1CN(CC2CCCCC2)[C@@H](c2ccc(Cl)cc2)C[C@H]1n1cc(C2CC2)nn1	.	.	.	16	.	-8	-16	-21
CCCn1c(SCC(=O)NC(C)(C)C)nnc1C(C)C	-8	-8	6	-52	i	-2	1	2
O=C(CSc1nnc(-c2ccccc2F)o1)N1CCNC1=O	.	.	.	-30	.	-31	5	5
N#CCCn1ccc(NC(=O)c2ccc(Cl)cc2)n1	-2	-2	8	.	i	1	0	2
Cc1cc(C)n(CC(O)CN(c2ccccc2)S(=O)(=O)c2ccccc2)n1 (stereo not given)	-7	-2	-4	.	i	-7	5	2
Cc1sc2nc(SCC(=O)N3CCCC3)[nH]c(=O)c2c1C	-7	-1	-3	16	i	-7	2	3
CCCn1c(NC(=O)c2ccc([N+](=O)[O-])o2)nc2ccccc21	59	.	.	19	i	-3	-24	-4
CCc1nn2cc(C(=O)c3ccccc3O)cnc2c1-c1ccc(F)cc1	11	-9	6	-29	i	-19	2	-6
Cc1nc(CNS(=O)(=O)c2ccc(Br)cc2)cs1	-17	0	17	-4	i	-7	2	3
CC(=O)c1ccc(NC(=O)c2sc3nc(C)c(C)c(C)c3c2N)cc1	.	7	-2	-58	i	-17	-3	-11
CN(C)c1ccc(/C=N/NC(=O)c2ccc3c(c2)OCCO3)cc1	-1	-17	-10	.	i	24	-3	0
CCc1ccccc1NC(=O)CN1CCN(CC(=O)Nc2ccc3c(c2)OC2(CCCCC2)O3)CC1	.	.	.	27	.	-8	4	-17
C#CCOCCOCCOCCNc1nc(N2CCOCC2)nc(N2CCN(C(=O)CCCCCCCCCCNC(=O)[C@@H](CCSC)n3cc(CCO)nn3)CC2)n1	0	.	.	9	.	-1	-2	-2
Clc1ccc(-c2cc(COc3ccccc3)no2)cc1Cl	21	-10	-6	.	i	.	2	0

Source: PubChem
